UUG fidelity = modulators of yeast start codon fidelity, primary screen, whole organism, S. cerevisiae, single point, plate reader. S. cerevisiae UUG-firefly luciferase reporter, luminescence/redox ratio. activity score, % at 18.7 µM. 0.13% of 350,000 active. AID 602363, 2012;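 active = replicate mean at a twofold rise or more, about +100% in these data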;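 note: firefly luciferase made from a UUG start codon reports start codon fidelity; reporter light over untreated wells divided by growth signal over untreated wells; some hits fall short of that in this replicate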
PABP FP inh = PABP poly(A) RNA binding inhibitors, primary screen, biochemical, fluorescence polarization, uHTS. AID 2014, 2009. inhibition, % at 35 µM. 1% of 290,000 active;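 active = 50% or more with normal probe brightness, or confirmed in later tests; about a fifth of its hits are not listed in these tables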;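 note: calls also rest on retests at 20 µM and on dose response follow-up; controls were probe without protein and protein plus probe with vehicle; some compounds called inactive have numbers as strong as hits; many hits fall short of the cut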
MT1-MMP act inh = blockers of MT1-MMP proenzyme processing, primary screen, HT1080 RFP-PRO-GFP cells, GFP/RFP fluorescence; GFP/RFP ratio change, % at 20 µM; GFP/RFP ratio fluorescence, overnight; percent of plate control window, DMSO zero; 0.061% of 360,000 active;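 active = GFP/RFP ratio change of at least 30% with cell ATP level not reduced by more than half and red fluorescence within 50% of control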; note: strong numbers were not always called active
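Compound: 20 µM single dose, 1% DMSO / System: HT1080 RFP-PRO-GFP cells / Controls: DMSO and RFP-L50D-GFP cell wells / Read-out basis: GFP/RFP fluorescence ratio / Schedule: overnight compound exposure at 37 °C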
Rce1 inhib = yeast Rce1p protease inhibitors, primary screen, biochemical, fluorescence, cell-free homogeneous; CAAX prenyl protease 2 (Saccharomyces cerevisiae (strain ATCC 204508 / S288c)), Q03530; yeast membranes, quenched prenylated peptide cleavage fluorescence; calls only; 0.27% of 290,000 active; AID 2563, 2010;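 active = fall in fluorescence gain of 50% or more versus controls, with final raw signal at or below 3038400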;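 note: plate controls were neutral control wells for no effect and wells lacking membranes for full effect; tested at 10 µM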
Target sequence (Q03530 whole entry, looked up): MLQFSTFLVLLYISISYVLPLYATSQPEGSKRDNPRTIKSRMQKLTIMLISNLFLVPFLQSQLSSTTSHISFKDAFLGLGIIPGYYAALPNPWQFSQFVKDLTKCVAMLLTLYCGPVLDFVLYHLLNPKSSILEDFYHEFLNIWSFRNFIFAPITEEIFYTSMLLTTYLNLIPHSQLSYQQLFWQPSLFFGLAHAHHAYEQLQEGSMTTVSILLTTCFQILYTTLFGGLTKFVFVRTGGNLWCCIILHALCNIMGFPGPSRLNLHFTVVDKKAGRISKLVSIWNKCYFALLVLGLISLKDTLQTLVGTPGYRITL
eIF4H FP inh = human eIF4H binding inhibitors, primary screen, translation initiation inhibitor project, biochemical, uHTS, fluorescence polarization. inhibition, % at 35 µM. eIF4H fluorescence polarization binding assay. 0.94% of 290,000 active. Eukaryotic translation initiation factor 4H (Homo sapiens), Q15056;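 active = 50% or more with normal probe brightness, or confirmed in later tests; about a fifth of its hits are not listed in these tables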;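 note: calls also rest on retests at 20 µM and on dose response follow-up; 0% = protein and probe with vehicle and 100% = probe without protein; strong numbers were not always called active; many hits fall short of the cut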
CSC inhib = cancer stem cell viability inhibitors, primary screen, luminescence; cancer stem cell-like cells viability; inhibition, % at 7.5 µM; 1.1% of 300,000 active;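 active = mean at 75% or more and at least half the replicates too; tested in HMLE shEcad cells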;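 note: 0% = median of negative and 100% = median of positive control wells; the first replicate is given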
Env fusion inh = inhibitors of HIV-1 Env-driven cell-cell fusion, primary screen, HeLa-JRFL effector, CEM21 target cells, luciferase. inhibition, % at 12.3 µM. 1.1% of 360,000 active. AID 651610, 2012;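 active = mean replicate inhibition score of at least 50 and every replicate individually at or above 50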;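 note: 0% = plate neutral controls and 100% = maraviroc near 300 nM; one replicate is shown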
eIF4H FP inh retest = recorded beside eIF4H FP inh, whose call it bears; inhibition, %; compound at 20 µM; confirmation average;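 mean of two retest wells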
PABP FP inh retest = recorded beside PABP FP inh, whose call it bears; inhibition, %; compound at 20 µM; confirmation repeats;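 mean of two retest wells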
MT1-MMP act inh RFP = further read-out of MT1-MMP act inh, marked with its call; RFP signal change, %; measured here: RFP expression control read;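 0 = vehicle wells; hits needed this value within 50% of zero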
Numbers without * were called inactive; i = inactive; / = not tested or not shown. Only part of the results is shown. The share of hits here may be higher or lower than overall.

SMILES	UUG fidelity	PABP FP inh	MT1-MMP act inh	MT1-MMP act inh RFP	Rce1 inhib	eIF4H FP inh	CSC inhib	Env fusion inh	others
O=C(/C=C1\SC(=O)NC1=O)Nc1ccc(F)cc1	/	-2.3	-1.1	-0.8	i	-1.6	-6.7	-12.1
O=C(Nc1nnc(-c2ccncc2)o1)c1ccc(Br)s1	/	4.7	-5.7	1.1	i	11.2	20.1	-21.2
O=C(Cn1c2ccc(F)cc2c2nc3n(c(=O)c21)CCS3)Nc1ccccc1F	/	-5.2	/	/	i	0.6	-4.9	/
Cc1ccc(-c2nn(Cc3ccccc3)cc2/C=C/C(=O)O)cc1C	-2.2	-4.1	4.2	3.1	i	-1.7	-5.5	/
Cc1nn(C)c(C)c1/C=N/NC(=O)c1csc2ccccc12	/	0.1	/	/	i	-5.4	-9.5	-21.7
FC(F)(F)c1cc(Cl)c2nnc(C(F)(F)Cl)n2c1	/	37.8	0.6	6.8	i	1.1	1.5	6.2
Cc1ccc2[nH]c3c(=O)n(CCN4CCNCC4)cnc3c2c1	-17.1	-1.9	-8.7	1.4	i	-12.8	32.9	-15.7
Cc1ccc(Cn2c(N3CCN(CCO)CC3)nc3c2c(=O)n(C)c(=O)n3C)cc1	4.8	4.9	-5.3	-2.9	i	-0.3	-10.0	1.2
N#CCc1cccnc1Sc1ccc(Cl)cc1	/	/	-0.9	-0.2	i	/	-7.4	0.3
COC(=O)C(Cc1c[nH]c2ccccc12)NC(=O)C1CC1 (centres undefined)	-12.9	5.8	2.5	6.3	i	-5.0	9.1	-91.3
CC1(C)CC(=O)C2=C(C1)N(Cc1ccco1)C(=O)C2(NC(=O)C1CCCCC1)C(F)(F)F (centres undefined)	-9.3	1.9	/	/	i	-3.5	-1.2	-35.9
Cc1cc(Cl)c(OCCOCCN2CCN(C)CC2)c(Br)c1	-14.8	-0.7	2.2	-0.7	i	5.4	58.0	3.6
CCCCCNC(=O)c1cn(CC)c2cc(N3CCN(C)CC3)c(F)cc2c1=O	-10.5	14.2	0.5	0.6	i	45.4	39.4	-2.2
CC[C@]12c3[nH]c4ccccc4c3CCN1C(=O)C(CC(=O)NCCN1CCOCC1)C[C@@H]2C(=O)N1CCN(C(=O)c2ccco2)CC1 (some centres undefined)	11.5	/	2.7	6.1	/	/	-6.7	-5.1
CN(C)C(=O)CSc1nnc(-c2ccco2)n1-c1ccccc1	4.7	/	4.5	2.4	/	/	/	2.9
Cc1ccc(C(=O)Nc2nc3n(n2)C(c2ccccc2)CC(=O)N3)cc1 (centres undefined)	-11.9	1.2	-3.2	-3.5	/	-3.3	-14.2	-4.1
O=C(NCc1cccnc1)c1cc(C2CCCN(S(=O)(=O)c3cccs3)C2)on1 (centres undefined)	-0.8	/	-3.8	-5.8	/	/	/	0.3
COc1ccc(C(c2nnnn2-c2c(C)cccc2C)N2CCN(C/C=C/c3ccccc3)CC2)cc1 (centres undefined)	14.6	/	-1.4	-3.8	/	/	/	29.4
CC1(CCc2ccccc2)NC(=O)N(CC(=O)Nc2c(F)cccc2F)C1=O (centres undefined)	-12.3	/	-2.7	1.2	/	/	-18.5	-15.0
COc1ccc(Cl)cc1NC(=O)/C=C/C(=O)O	/	-0.6	/	/	i	-5.9	-13.7	-1.4
O=C(COC(=O)c1ccccc1NC(=O)c1ccco1)NCC1CCCCC1	-16.9	-1.4	0.1	0.8	i	-2.2	-8.3	-21.3
CN(C)S(=O)(=O)c1ccc(NC(=O)c2ccccn2)cc1	-28.6	2.1	2.7	-1.2	i	1.5	-10.3	/
COc1ccc(C/C(C)=N/NC(=S)Nc2ccc(C(C)C)cc2)cc1	-17.7	-12.3	-0.1	-1.5	i	-10.0	21.7	3.5
COc1cccc(N(CC(=O)Nc2cccnc2)S(C)(=O)=O)c1	-21.5	12.4	-5.5	-1.5	i	9.5	-8.9	-0.1

Part of the list above in order of formula weight, smallest number first:
SMILES	UUG fidelity	PABP FP inh	MT1-MMP act inh	MT1-MMP act inh RFP	Rce1 inhib	eIF4H FP inh	CSC inhib	Env fusion inh	others
CN(C)C(=O)CSc1nnc(-c2ccco2)n1-c1ccccc1	4.7	/	4.5	2.4	/	/	/	2.9
COc1cccc(N(CC(=O)Nc2cccnc2)S(C)(=O)=O)c1	-21.5	12.4	-5.5	-1.5	i	9.5	-8.9	-0.1
CCCCCNC(=O)c1cn(CC)c2cc(N3CCN(C)CC3)c(F)cc2c1=O	-10.5	14.2	0.5	0.6	i	45.4	39.4	-2.2
O=C(NCc1cccnc1)c1cc(C2CCCN(S(=O)(=O)c3cccs3)C2)on1 (centres undefined)	-0.8	/	-3.8	-5.8	/	/	/	0.3
COc1ccc(C(c2nnnn2-c2c(C)cccc2C)N2CCN(C/C=C/c3ccccc3)CC2)cc1 (centres undefined)	14.6	/	-1.4	-3.8	/	/	/	29.4
CC[C@]12c3[nH]c4ccccc4c3CCN1C(=O)C(CC(=O)NCCN1CCOCC1)C[C@@H]2C(=O)N1CCN(C(=O)c2ccco2)CC1 (some centres undefined)	11.5	/	2.7	6.1	/	/	-6.7	-5.1

(continued)
SMILES	UUG fidelity	PABP FP inh	MT1-MMP act inh	MT1-MMP act inh RFP	Rce1 inhib	eIF4H FP inh	CSC inhib	Env fusion inh	others
CC(C)(C)NC(=O)CSc1nccn1Cc1ccccc1	-19.0	42.3*	0.8	-3.2	i	67.6*	0.1	/	eIF4H FP inh retest=74.1*;PABP FP inh retest=53.4*
CC(=O)NNC(=O)CC(=O)Nc1nc(C23CC4CC(CC(C4)C2)C3)cs1	/	-7.1	1.1	2.5	i	-11.2	12.1	11.0
COc1ccc(CC(=O)NC(C)CCc2ccccc2)cc1OC (centres undefined)	-11.6	-12.2	7.3	-7.2	i	-5.5	-1.7	10.2
CC(C)c1ccc(N(C(=O)c2csnn2)C(C(=O)NC(C)(C)C)c2cccnc2)cc1 (centres undefined)	/	2.4	2.4	2.2	i	-5.9	9.2	22.3
O=C(NCc1ccc(Cl)cc1)C1CCCN(c2ncnc3c2nc2n3CCCCC2)C1 (centres undefined)	-7.7	-0.4	1.2	-6.9	i	-0.1	4.0	0.3
O=C(O)c1ccc(Nc2nc(-c3cc4ccccc4oc3=O)cs2)cc1O	/	18.9	1.1	-2.5	i	50.9*	/	10.6	eIF4H FP inh retest=86.3*;PABP FP inh retest=8.0
Cc1cccc(NC(=O)Cn2ccn(-c3ccc4c(c3)OCCO4)c(=O)c2=O)c1	-2.5	/	-1.3	2.1	i	/	-2.3	6.3
Cc1cccc2c1-c1sc(C(=O)Nc3cccc([N+](=O)[O-])c3C)cc1CO2	/	-1.3	-1.8	-12.1	i	-3.6	37.4	50.1
CCOCCCNC(=O)C1CCC(=O)N1CCc1ccccc1 (centres undefined)	-15.4	1.9	-1.1	-2.7	i	4.7	-15.0	/
O=C(NCC1CCCO1)C(=O)NCC(c1ccco1)N1CCN(c2ccc(F)cc2)CC1 (centres undefined)	-6.5	-2.1	4.1	-1.0	i	8.1	1.5	/
Cc1ccc(Cc2c(-c3cccc(Cl)c3)nc3ccc(Br)cn23)cc1	-29.2	/	-0.3	5.9	/	/	/	-100.6

Screening results as filed in PubChem.
